From PubChem
Vaccinia pol inh: vaccinia E9 polymerase processive synthesis inhibition; hit rate 0.94% among 46,000; in vitro processive DNA synthesis, absorbance read-out; active compounds read low; some inactives read as strong as hits; normalized absorbance, % (test concentration not listed);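 active = replicate mean up to 90% and picked by the depositor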;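 note: 100% = median of the test wells of a plate; 100 nL library stock went into each well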
* marks the source's active call; other numbers are inactive results; & = joins results of further samples. This is a subset; the hit share may differ from the screen's.

compound | Vaccinia pol inh
CCC1CCCCN1C(=O)c1sc2nc(-c3ccccc3)cn2c1C (stereo unspecified) | 97.7
O=C(COc1ccc(C(=O)c2ccccc2)cc1)NCC1CCCCC1 | 102.3
N#CC1=C(N)NC(SCC(N)=O)=C(C#N)C1c1ccccc1Cl (stereo unspecified) | 100.4
N#C/C(=N/O)c1nc2ccccc2s1 | 100.9
CNC(=O)COc1ccc(Oc2ccc(C)cc2)cc1 | 102.2
CCOC(=O)c1c(N)sc(C(=O)N2CCOCC2)c1C | 100.3
COc1nc(NCCc2ccc(OC)c(OC)c2)nc(Nc2ccc(Cl)cc2)n1 | 99.9
CS(=O)(=O)c1cc2cc(Cl)ccc2oc1=O | 99.6
CC1CCC(C)C(NC(=O)c2ccc(I)cc2)C1 (stereo unspecified) | 98.2
CSc1cccc2c(SC)cccc12 | 100.2
CCCCc1cc(=O)oc2cc3oc4c(c3cc12)CCCC4 | 101.3
O=C(N/C(=C/c1ccccc1)C(=O)N1CCc2ccccc2C1)c1ccccc1 | 100.4
O=C(O)C(Cc1cnc[nH]1)N1C(=O)c2ccccc2C1=O (stereo unspecified) | 97.8
Cc1ccc(S(=O)(=O)NC(=O)c2cccn2C)cc1 | 100.9
COc1ccc(N=Cc2cn(-c3ccc(OC)cc3)cc2C=Nc2ccc(OC)cc2)cc1 | 68.4
O=S(=O)(Cc1ccc(F)cc1)Cc1noc(-c2ccno2)n1 | 100.7
O=C(O)COc1ccc(Nc2ccccc2)cc1 | 100.3
COc1ccc(C(=O)COC(=O)c2cc(Br)ccc2Cl)cc1 | 107.2
CC(C)(C)OC(=O)Cn1ccc(=O)[nH]c1=O | 104.0
CC(=O)OC1(Cc2ccccc2)CN2CCC1c1ccccc12 (stereo unspecified) | 95.0
CSc1ccccc1CNC(=O)NC12CC3CC(CC(C3)C1)C2 | 98.0
Nc1nnc(CCS(=O)(=O)c2ccc(Br)cc2)s1 | 100.2
CCc1ccc(/C=C2\C(=N)N3N=C(N4CCCC4)SC3=NC2=O)cc1 | 99.0
COc1ccc(C(=O)Nc2sc3c(c2C(N)=O)CC(C)CC3)cc1OC (stereo unspecified) | 100.0
COc1ccc(C(=O)NCc2nnc(SC(C)C)n2Cc2ccccc2)cc1 | 99.0
Cc1ccc(S(=O)(=O)CCN2CCC(C(F)(F)F)CC2)cc1 | 108.7
COC(CNC(=O)c1ccc(CS(=O)(=O)Cc2ccc(Cl)cc2)o1)OC | 89.4
O=C(Sc1ccccc1)c1ccc(C(F)(F)F)cc1 | 99.8
NCCc1cnc[nH]1 | 99.7&102.8
CCOc1ccccc1C(=O)NC1CCCCCC1 | 99.4
COc1ccc(C2=C3NN=C(N)N3NN2)cc1 | 101.3
O=C(c1c[nH]c2ccccc2c1=O)N(Cc1ccccc1)Cc1ccccc1 | 96.6
CCCN(CCC)C(=O)Cn1c(SCc2cccc(Cl)c2)nc2ccncc21 | 98.6
COC(=O)C1=C(C)N(c2ccccc2)/C(=C/c2cccc3ccccc23)C1=O | 99.4
COc1ccccc1N1CCN(C(=O)c2cccc(Oc3ccccc3)c2)CC1 | 99.0
CCc1ccc(NC(=O)c2ccc(F)c(S(=O)(=O)NCC3COc4ccccc4O3)c2)cc1 (stereo unspecified) | 101.5
O=C(CSCc1cccc2ccccc12)Nc1ccc(C(F)(F)F)cc1 | 74.6
CCOC(=O)c1c(N)sc(=S)c2c1CCC2 | 100.2
C/S(=N\S(=O)(=O)c1ccc(Cl)cc1)c1ccccc1 (stereo unspecified) | 87.9
COc1ccc(C2NC(=O)NC(C)=C2C(=O)c2ccccc2)cc1OC (stereo unspecified) | 100.4
COc1ccc(-c2cc(C(F)(F)F)nc(SCC(=O)N(C)Cc3cn(C)nc3C)n2)cc1OC | 102.5
COc1ccc(SCc2nsc(Sc3ccc(OC)cc3)n2)cc1 | 100.0
C=CCN1C(=O)NC(=O)/C(=C/c2ccccc2OCc2ccc(F)cc2)C1=O | 100.4
Cc1cccc(C)c1NC(=S)N1CCCC1=O | 104.2
COc1ccc(N=Cc2ccc(-c3ccc(F)cc3)o2)cc1 | 98.9
CC(C)(C)c1cc(CN2C(=O)c3ccccc3C2=O)cc(C(C)(C)C)c1O | 98.5
Cc1nn(-c2ccccc2)nc1C(=O)NC(=O)N1CC(C)OC(C)C1 (stereo unspecified) | 99.3
Cc1ccc2nc(Cl)c3cc(C(=O)NCCN4CCN(C)CC4)sc3c2c1 | 22.8*
Oc1c(Cl)cc(Cl)cc1C1c2cccn2CC2CCCCN21 (stereo unspecified) | 116.5
O=C(NC(=O)N1CCOCC1)c1ccc(S(=O)(=O)N2CCOCC2)cc1 | 89.0
Cc1cc(C)n(C(=O)CNC(=O)c2cccs2)n1 | 99.8
NC[C@@H]1O[C@H](OC2[C@@H](O)[C@H](O[C@@H]3[C@H](N)[C@@H](O)C[C@H](N)[C@H]3O[C@H]3O[C@H](CO)[C@@H](O)[C@H](O)[C@H]3N)O[C@@H]2CO)[C@H](N)[C@@H](O)[C@@H]1O (stereo partly specified) | 100.2
Cc1cc2cc(CNC(=O)COc3ccc4ccccc4c3)ccc2n1C | 96.9
CC1Sc2cc(S(=O)(=O)NCc3ccccc3)ccc2NC1=O (stereo unspecified) | 100.0
O=C(CSc1nnc(Cc2ccccc2)o1)N1CCCC1 | 72.0
Cc1ccccc1Cn1cnc2ccccc2c1=O | 100.6
CCOc1ccc(NC(=O)CN2C(=O)CSC(C)C2=O)cc1 (stereo unspecified) | 106.7
COC(=O)c1c(C)oc(C)c1S(=O)(=O)NCc1ccc(OC)cc1 | 97.8
COC(=O)CCC(=O)c1cc(C(C)(C)C)sc1C(C)(C)C | 100.3
N#CCOC(=O)/C=C\c1ccccc1 | 94.2

New compounds follow.
compound | Vaccinia pol inh
O=C(c1cc(-c2ccccc2)n[nH]1)N1CCN(c2cccc(C(F)(F)F)c2)CC1 | 96.7
CC(C)(NO)C(=O)c1cc(C(C)(C)C)c(O)c(C(C)(C)C)c1 | 100.3
CN(C)c1ccc(C2NCC(CSc3nc(-c4cccs4)cc(C(F)(F)F)c3C#N)O2)cc1 (stereo unspecified) | 93.8
Cc1ccc(N(c2ccc(C)cc2)c2cccnc2)cc1 | 99.9
Cc1cccc(NCN2C(=O)S/C(=C\c3cccc(F)c3)C2=O)c1 | 88.6
Cc1ccccc1OCC(=O)Nc1ccc(NC(=O)c2cccs2)cc1 | 100.1
C/C=C1/C(C)C(C(F)(F)F)(C(F)(F)F)C(C#N)=C(N)N1c1ccc(C(N)=O)cc1 (stereo unspecified) | 100.3
Cc1sc2sc(-c3ccccc3)c(N)[n+]2c1C | 99.5
CCOC(=O)c1cc(C(=O)OCC)c(C)nc1C | 100.6
O=P1(N2CCN(c3ccc(Cl)cc3)CC2)COc2ccccc2OC1 | 99.7
CCOc1ccc(S(=O)(=O)NC)cc1 | 99.7
O=C(/C=C/c1cccs1)NC(=S)N1CCCCC1 | 95.6
O=c1cc(-c2ccccc2)c2cc(Br)ccc2[nH]1 | 102.7
CCOC(=O)c1c(NC(=O)Cc2ccccc2)sc2c1CCCC2 | 100.4
O=C(C1=C(O)C(=O)N(c2ccccn2)C1c1ccccc1)c1cccs1 (stereo unspecified) | 97.1
CCC(O)c1nc2ccccc2n1CCOc1ccccc1 (stereo unspecified) | 107.8
Cc1cc(C)c(C(=O)c2ccccc2)cc1C(=O)c1ccccc1 | 100.4
O=C(NCCc1nc2ccccc2[nH]1)Nc1ccccc1 | 100.2
CCN1CCN(c2ccc(NC(=O)C(C)C)cc2)CC1 | 100.5
C(=N/c1nccs1)/Nc1nccs1 | 96.9
Cc1cc(=O)[nH]c(/N=C(\N)Nc2ccccc2)n1 | 100.3
Cc1ccccc1Cn1c(-c2cncs2)nc2ccccc21 | 96.1
CSc1ccccc1NC1=NS(=O)(=O)c2ccccc21 | 101.6
CC(C)(C)C1CCc2nc(N)c3c(=O)oc4ccccc4c3c2C1 (stereo unspecified) | 99.5
CNC(=S)N(Cc1ccc(OC)cc1OC)c1ccc(C(C)(C)C)cc1 | 100.2
O=C(C1CC1)N1CCN(c2ncccn2)CC1 | 98.2
Cc1ccc(-c2[nH]ncc2CNCc2ccccc2)cc1C | 105.6
COc1ccc(-c2nc(N)sc2C)cc1 | 98.3&96.4
CC1N=C2c3ccccc3N=C(SCC(=O)c3ccc(O)c(O)c3)N2C1=O (stereo unspecified) | 92.3
Brc1cnc(N2CCCC2)nc1 | 101.0

An excerpt of these results, as labelled records:
Compound: COc1ccc(C(=O)NCc2nnc(SC(C)C)n2Cc2ccccc2)cc1
  Vaccinia pol inh: 99.0
Compound: COC(=O)CCC(=O)c1cc(C(C)(C)C)sc1C(C)(C)C
  Vaccinia pol inh: 100.3
Compound: CNC(=S)N(Cc1ccc(OC)cc1OC)c1ccc(C(C)(C)C)cc1
  Vaccinia pol inh: 100.2
Compound: Cc1cc(C)n(C(=O)CNC(=O)c2cccs2)n1
  Vaccinia pol inh: 99.8

(continued)
compound | Vaccinia pol inh
CC1C(=O)Nc2ccccc2N1C(=O)c1ccccc1 (stereo unspecified) | 84.8
CCc1ccc(C2Nc3ccccc3C(=O)N2c2ccc(N(C)C)cc2)cc1 (stereo unspecified) | 100.1
COc1ccccc1CNCc1ccccc1 | 100.2
O=C(NCCOc1ccccc1F)c1ccccc1Nc1cccc2ccccc12 | 100.6
COc1ccc(Cl)cc1-n1cnc2sc(C)c(C)c2c1=O | 104.5
Cc1[nH]c2ccccc2c1C(c1ccccn1)N1CCN(CCO)CC1 (stereo unspecified) | 99.4
Cc1ccc(S(=O)(=O)Nc2cc(C)c3oc(=O)sc3c2)cc1 | 100.3
CCn1c(C(=O)NC2CCCCCC2)cc2oc3ccccc3c21 | 101.9
CC(CC(=O)O)CC(=O)Nc1cccc(C(=O)O)c1 (stereo unspecified) | 100.4
Cc1onc(-c2ccccc2Cl)c1NC(=O)Nc1cccc(C(F)(F)F)c1 | 110.1
CCOc1ccc(NC(=O)CSC2CCCCC2)cc1 | 99.9
CN1CCN(c2ccc(C(F)(F)F)cc2NO)CC1 | 111.8
CCC(=O)c1ccc(OC(=O)c2ccc(N(CC)CC)cc2)cc1 | 99.4
COc1cc(OC)nc(/N=C/NO)n1 | 96.8
CCCCN(C(=O)c1c(C)[nH]c(C(=O)OCC)c1C)c1ccccc1 | 100.7
O=C1NCCN1CCNS(=O)(=O)c1ccc2ccccc2c1 | 98.5
C(=N\n1cnnc1)/c1ccc(Nc2ccccc2)cc1 | 103.1
N/C(=N\S(=O)(=O)c1ccc(Cl)s1)c1ccccc1 | 101.0
c1ccc(CN2CCN(Cc3ccccc3)C2c2c[nH]c3ccccc23)cc1 | 99.7
Fc1nc(F)c(F)c(SC(=S)N2CCOCC2)c1F | 96.7
CCN(CC)C(=O)Cc1ccc(Br)cc1 | 102.0
O=C(NCCN1CCOCC1)C1CCC(Cn2c(=S)[nH]c3ccccc3c2=O)CC1 (stereo unspecified) | 98.2
Nc1nc(SC/C=C/c2ccccc2)n[nH]1 | 112.0
O=C(NC1(O)C(=O)c2ccccc2C1=O)c1ccccc1 | 85.8
O=C1CN(c2nc(-c3ccc(Cl)cc3)cs2)CCN1 | 101.6
Cc1ccc2[nH]c(=O)c(CCC(=O)O)c(C)c2c1 | 101.6
Fc1ccc(COc2ccccc2CNC2CCCC2)cc1 | 98.2
C=CCNC(=O)C1(O)c2ccccc2NC(=O)N1c1ccccc1 (stereo unspecified) | 100.6
O=C1CN(S(=O)(=O)c2ccccc2)CC(=O)N1CCc1ccccc1 | 96.3
COC(=O)CN1C(=O)C(=Cc2ccc(N(C)C)cc2)SC1=S | 99.5
COC(=O)c1ccc(NC(=O)CSc2nccn2C)cc1 | 99.3
O=C1c2ccc(-c3nc4ccc(Br)cc4c(=O)o3)cc2C(=O)N1C1CCCCC1 | 93.3
O=c1cc(-c2cccs2)oc2ccc(Cl)cc12 | 101.1
COC(OC)c1ccc(C#N)c(SCC(=O)c2ccccc2)n1 | 99.6
O=C(NCc1ccccc1)c1cc(-c2ccco2)on1 | 102.9
O=C(NCCc1ccccc1)c1ccc2c(c1)sc1nc(-c3ccccc3)cn12 | 102.7
CC1C2CC(CC1(C)C)N(C(=O)c1ccc(N3C(=O)c4ccccc4C3=O)cc1)C2 (stereo unspecified) | 101.3
COC(=O)CSc1nnc(-c2c[nH]c3ccccc23)n1-c1ccc(F)cc1 | 100.7
O=C(Nc1ccc(F)cc1F)N1CCN(Cc2ccccc2)CC1 | 99.1
NNc1nc2ccccc2o1 | 86.8
CCOC(=O)C1=C(O)c2ccccc2C1=O | 97.1
COc1ccc(-n2ncc3c(NCCc4ccccc4)ncnc32)cc1 | 100.0
COC(=O)c1cnn(C(=O)c2ccccc2Br)c1N | 103.2
O=C(NC12CC3CC(CC(C3)C1)C2)C1CCCN1S(=O)(=O)c1ccccc1 (stereo unspecified) | 100.8
CC(=O)NC1=NC(=O)/C(=C\c2ccc(Cl)cc2)S1 | 100.5
CC(NC(=O)CSc1nc2c(c(=O)n1C)C1=C(CCCC1)C2)c1ccccc1 (stereo unspecified) | 100.1
CCN1C(=O)/C(=C2\SC(=S)N(NC(=O)c3ccccc3)C2=O)c2ccccc21 | 100.6
CN(C)c1ccc(/C=C(\NC(=O)c2ccccc2)C(=O)NCc2ccco2)cc1 | 103.1
CC1CCN(Cc2ccc(NC(=O)Nc3cccs3)cc2)CC1 | 99.6
CCOC(=O)c1[nH]c2ccc(OC)cc2c1N=C(C)N(C)C | 99.8
CCc1cc(=O)oc2cc3occ(C(C)(C)C)c3cc12 | 96.3
COc1ccccc1C(=O)N1CCNCC1 | 91.9
Cc1ccc(Cl)cc1NCN1C(=O)/C(=C/c2ccc(Br)cc2)NC1=S | 92.3
CC(=O)N1CCc2cc(S(=O)(=O)NCCC(=O)N3CCc4ccccc43)ccc21 | 101.6
Cc1ccn2c(-c3nnco3)c(C)nc2c1 | 80.7
CC(=O)OC1C(=O)OC2C1OC(n1ccc(=O)[nH]c1=O)C2OC(C)=O (stereo unspecified) | 101.1
